AID504770: growth inhibitors of E. coli YBA685 in a screen for V. cholerae RctB (chromosome II replication) inhibitors | AID 504770 | E. coli YBA685 rctB-dependent plasmid, OD600 growth, 3 h; hits give low values | z-score (no concentration beside the values) | actives 0.27% (n = 130,000);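 active means z-score under -2 on both plates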;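 further: wells of about 30 µL received 100 nL stock; score is relative to mean and SD of the test wells; the first replicate is given; strong numbers were not always called active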
CapD inh: inhibitors of Bacillus anthracis CapD enzyme. purified CapD enzyme, fluorescence intensity read-out; hits give low values; some hits fall short of the stated cut. z-score (no concentration beside the values). actives 0.23% (n = 140,000);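 active means z-score under -4 in either of two replicates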;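 further: stock transfer was 100 nL into about 40 µL; score is relative to mean and spread of the plate; one replicate is shown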
Numbers without * were called inactive; / = no result given. Random draw from the library; 0.37% or so of the library scored in one or more.

Preview (3 entries):
compound	CapD inh	AID504770
CC1CN(/C=C(\C#N)S(=O)(=O)c2ccc(Br)cc2)CC(C)O1 (centres undefined)	0.02	-0.5
N/C(C[n+]1ccccc1)=N\O	-0.025	-0.55
CCOC(=O)Nc1ccccc1C(=O)OC	4.8	1.1

The list itself, from the start:
compound	CapD inh	AID504770
CC1CN(/C=C(\C#N)S(=O)(=O)c2ccc(Br)cc2)CC(C)O1 (centres undefined)	0.02	-0.5
N/C(C[n+]1ccccc1)=N\O	-0.025	-0.55
CCOC(=O)Nc1ccccc1C(=O)OC	4.8	1.1
CC(CN=CC1=C(O)CC(C)(C)CC1=O)c1ccccc1 (centres undefined)	0.08	-0.25
Cc1cc(C)cc(NC(=O)COC(=O)c2cccnc2Cl)c1	0.29	0.7
COCCNC(=O)c1cc2c(=O)n(C)c3ccccc3c2s1	26	-0.95
CC(=O)Oc1cccc(C(=O)N2CCC(C)CC2)c1	-0.07	-0.2
CC(Oc1ccc(F)cc1)C(=O)N(Cc1ccccc1Cl)C1CCS(=O)(=O)C1 (centres undefined)	-1	-0.1
CN(C)c1ccc(C2C=C(Nc3ccccc3)C(=O)N2c2ccccc2)cc1 (centres undefined)	0.8	/
CCOc1ccc(C2(O)CN(c3ccc(OC)cc3)C3=[N+]2CCCC3)cc1 (centres undefined)	0.32	/
CCCN(Cc1ccccc1)S(=O)(=O)c1ccc(N2C(=O)CCC2=O)cc1	0.45	-0.75
CCOC(=O)c1ccc(NC(=O)C2CC(=O)N(C)C(=Nc3ccccc3OC)S2)cc1 (centres undefined)	-0.08	/
Cc1cnc(C(=O)NCc2ccc(Cl)cc2Cl)cn1	/	0.1
Cc1oc(-c2ccccc2F)nc1CS(=O)(=O)CC(=O)N1C(C)CCCC1C (centres undefined)	-0.15	0.7
CN(C)C(CC(=O)Nc1cccc(C(F)(F)F)c1)C(=O)O (centres undefined)	-0.2	0.75
O=C(OCCN1CCOCC1)N1CCN(C(c2ccccc2)c2ccc(Cl)cc2)CC1 (centres undefined)	-0.32	/
Clc1ccc2c(N3CCOCC3)ccnc2c1	/	-0.15
CC(C)Cn1cc(C(=O)NCC2CCCO2)c2c3ccccc3n(C)c2c1=O (centres undefined)	88	-0.55
CCOc1ccc(CC(C(N)=O)C(N)=O)cc1	/	-0.4
Clc1cc(Cl)cc(Br)c1	-0.095	/
CC(C)(C)c1ccc(-c2cc(N)n(S(=O)(=O)c3cccc4nsnc34)n2)cc1	-1.1	0.7
CCOC(=O)c1cc2cc(Cl)ccc2oc1=O	3	0.4
Cc1cc(C(=O)N/N=C/c2ccc(O)cc2)c2ccccc2n1	-1.9	1.6
Cc1cc(C(=O)NC2CCCCCC2)no1	/	-0.4
CCCS(=O)(=O)c1c(S(=O)(=O)CCC)c2ccccn2c1C(=O)N/N=C/c1ccc(OC)cc1	-0.38	/
O=C(O)CCC(=O)Nc1nc2ccccc2s1	/	-0.6
COc1ccc(-c2nc(N)ncc2-c2cscn2)c(O)c1	-1.3	0.45
Cc1csc(=O)n1CCOC(=O)c1ccc2[nH]c3c(c2c1)CCCC3	/	0
NNc1nc(-c2ccccc2)c2ccccc2n1	0.24	1.2
O=C(NC1CCOC1=O)c1ccc(COc2ccc(Cl)cc2Cl)o1 (centres undefined)	0.01	-0.6
CCC1(c2cccc(OC(=O)C3CCCCC3)c2)CCCCN(C)C1=O (centres undefined)	0.7	1
Cc1[nH]c(=S)[nH]c(=O)c1Cc1ccc(C(=O)O)o1	-3	-0.35
CCOC(=O)c1sc2ncnc(Nc3ccc(OCC)cc3)c2c1C	-0.14	0.1
CCOC(=O)CC(=O)Nc1scc(C)c1C(=O)OCC	-0.48	/
COC(=O)C1=C(Nc2ccccc2N)CSC1	0.99	/
O=C(NCc1ccccn1)c1ccc(/C=N/O)nc1	0.015	0.65
CCOC(=O)c1sc(NC(=O)Cc2cccc3ccccc23)cc1C	2.7	0.55
CC(C)(C)c1ccc(CSc2nc3c(c(=O)[nH]2)CCC3)cc1	-0.9	-0.4
CC1Oc2ccccc2OC1(O)c1ccccn1 (centres undefined)	0.28	1.6
CCOC(=O)c1nonc1N	-0.2	-0.85
Cc1cc(C(=O)Nc2ccc(C(=O)N3CCOCC3)cc2)cs1	0.24	-0.35
CCC(=O)Nc1cccc(NC(=O)c2ccccc2Cl)c1	0.67	-1.5
COc1cc(OC)cc(C(=O)Nc2ccc(O)c(-c3nc4ccccc4s3)c2)c1	0.98	0.55
Cc1nn(CC(=O)Nc2ccc(N3CCCC3)cc2)c(=O)c2ccccc12	-0.79	0.05
CCOC(=O)CSc1sc(C(=O)OCC)c2c1C(=O)CCC2	-0.33	/
CC(C)c1ccc(N(CC(=O)N2CCN(Cc3ccccc3)CC2)S(C)(=O)=O)cc1	-0.29	1.1
CCN(CC)C(=O)NCCc1nnc(SC)n1C	/	-1.1
CC1=C(CC(=O)N2CCN(C/C=C/c3ccccc3)CC2)c2cc(F)ccc2/C1=C\c1ccc(S(C)=O)cc1 (centres undefined)	0.12	/
FC(F)(F)c1ccc(-c2noc(-c3csnn3)n2)cc1	-0.72	-0.65
CNC(=O)CC1C(=O)N(c2ccc(Cl)cc2)C(=S)N1NC(=O)c1cccc(F)c1 (centres undefined)	0.69	2.2

Additional entries
compound	CapD inh	AID504770
O=C(c1ccc(S(=O)(=O)NCc2cccs2)s1)N1CCCC1	0.46	-0.15
CCOc1cccc2c1NC(C)(C)C1=C2C2(SC(C(=O)OC)=C(C(=O)OC)S2)C(C(=O)OC)=C(C(=O)OC)S1	-0.14	/
Fc1ccc(Sc2cc(Cl)c(-c3ccccc3)nn2)cc1	-0.67	0.1
N#Cc1nccnc1N1CCN(C(c2ccccc2)c2ccccc2)CC1	0.54	/
O=C1SCCC1NS(=O)(=O)c1cc(C(F)(F)F)cc(C(F)(F)F)c1 (centres undefined)	-0.34	-0.7
Cc1sc2c(c1C)c(=O)n(-c1ccccc1)c1nnc(SCC(=O)c3ccc(Cl)cc3)n21	-1.1	/
S=c1[nH]nc2nc(-c3ccccc3)c(-c3ccccc3)nn12	-0.2	/
COc1cc(/C=C2\C(=O)Nc3ccc(Cl)cc32)cc(OC)c1OC	-0.64	0.1
O=C(COc1ccc(Cl)cc1Cl)NN1C(=O)C2C(C1=O)C1C=CC2C12CC2 (centres undefined)	1.4	/
Nc1ccc(Br)cc1C(O)c1ccccc1 (centres undefined)	0.5	-0.95
O=C1c2ccccc2C(=O)C1(O)N1CCOCC1	/	0
CCOc1ccc2oc(C(=O)Nc3ccc(N4CCOCC4)cc3)c(C)c2c1	/	1.1
CCC(=O)Nc1nc(C)c(-c2csc(Nc3ccc(S(N)(=O)=O)cc3)n2)s1	/	1.9
O=C(c1cc(-c2cccs2)nc2ccccc12)N1CCOCC1	95	-0.8
CCN1CCN(CCCNC(=O)C2CCCN(c3nc4c(C)cc(C)cc4s3)C2)CC1 (centres undefined)	0.07	-0.15
O=S1(=O)N=C(N2CCc3ccccc32)c2ccccc21	6.3	1.1
Oc1c(Br)cc(Br)cc1CNCc1ccccc1	-1.1	/
CC(C)CNC(=O)c1cc(-c2ccccc2O)on1	39	-0.25
O=C(/C=C/Nc1ccc(OC(F)(F)F)cc1)c1cc(Cl)sc1Cl	-0.95	/
Cc1c(C(=O)N2CCN(c3ccc([N+](=O)[O-])cc3)CC2)sc2ncnc(N3CCCCC3)c12	-0.47	/
CC(=O)Nc1ccc(C(=O)Nc2ccccn2)cc1	/	1.5
CC(CC(=O)O)CC(=O)Nc1ccccn1 (centres undefined)	0.41	0.15
CN1C(=O)/C(=C/c2ccc(C(=O)NC3CCCC3)cc2)Oc2ccccc21	-0.025	2
c1coc(CSc2nc3ccccc3n3cnnc23)c1	-0.56	-1.2
CCC(=O)N1c2ccccc2NC2=C(C(=O)CC(c3ccco3)C2)C1c1ccc(OC)c(OC)c1 (centres undefined)	3	/
COc1cc(CCC(C)NC(=O)c2ccco2)ccc1OC(=O)c1ccco1 (centres undefined)	0.24	-0.85
Cc1ccc(/C=N/NC(=O)Cn2ccc(C(F)(F)F)n2)o1	/	-0.65
O=C(COC(=O)C1CCN(S(=O)(=O)c2ccc3c(c2)OCCO3)CC1)c1ccc(Cl)s1	/	-0.2
O=S(=O)(c1ccc2c(c1)C(=NO)c1cc(S(=O)(=O)N(CCO)CCO)ccc1-2)N(CCO)CCO	7.2	-0.75
COc1cc(NC(=O)CSc2ccccc2)cc(OC)c1	/	-0.1
CC1CN(CC(=O)N2CCNC2=O)CC(C)O1 (centres undefined)	/	-0.45
Cc1ccc(-n2nc3cc(C)c(NC(=O)c4ccc5c(c4)OCCO5)cc3n2)cc1	36	/
O=S(=O)(c1ccc2c(c1)CCCN2)N1CCCCC1	/	0.05
COCCNC(=O)c1ccc2c(=O)n(Cc3ccc4c(c3)OCO4)c(SCC(=O)NC3CCCC3)nc2c1	1.3	/
O=C(Nc1ccccc1C(F)(F)F)N1CCC(Nc2nc3ccccc3o2)CC1	-0.015	-0.05
OC(COc1ccc(-c2ccccc2)cc1)Cn1ccnc1 (centres undefined)	/	2.4
CSc1nc2ccc(NC(=O)c3ccccc3)cc2s1	-1.2	/
Cc1c(NC(=O)C(C)OC(=O)c2c(F)cccc2Cl)c(=O)n(-c2ccccc2)n1C (centres undefined)	/	0.95
CCCN(Cc1nnc(-c2ccco2)o1)C(=O)C1CC(=O)N(Cc2ccccc2)C1 (centres undefined)	/	-1.9
O=C(CSc1ccccc1)Nc1ccccc1N1CCOCC1	0.15	-0.15
N#CCC(=O)N/N=C/c1ccc(-c2cc(C(F)(F)F)cc(C(F)(F)F)c2)o1	6.5	/
Cc1csc2c(=S)nc[nH]c12	-0.3	/
CCOCCOC(=O)COc1ccc2c(=O)c(-c3cccc4ccccc34)c(C(F)(F)F)oc2c1	0.6	/
CCOc1cc(C2C(C(=O)OC)=CNC=C2C(=O)OC)cc(Br)c1OCC	76	-0.25
O=C(COC(=O)Cn1cnc2ccccc2c1=O)Nc1ccc2c(c1)OCO2	/	-0.35
O=C(COC(=O)c1c(F)cccc1Cl)c1ccccc1F	-0.61	-0.45
CC1=[N+](CCO)c2ccccc2C1(C)C	/	-0.5
CCCc1nc(SCC(=O)c2ccccc2Cl)[nH]c(=O)c1C	0.74	-0.3
CCn1c(C)nc2cc(-c3nc4c5c6c(sc5ncn4n3)CCCC6)ccc21	/	-0.35
CCSC1=N/C(=C\c2cc(Br)c(OC(C)=O)c(OC)c2)C(=O)S1	-0.35	0.05

An excerpt of these results, with two lines to a compound.
Order of values – CapD inh	AID504770
> O=C(COC(=O)c1c(F)cccc1Cl)c1ccccc1F
    -0.61	-0.45
> CC1=[N+](CCO)c2ccccc2C1(C)C
    /	-0.5

Next section.
compound	CapD inh	AID504770
O=C(COC(=O)Cc1cccs1)Nc1ccccc1	/	-0.15
CC12COC3(C(=O)NCCc4ccccc4)CC1CCC32C (centres undefined)	-0.44	/
COc1ccc2nnc(-c3ccccc3)n2n1	12	-0.7
C=CCSc1nc2ccccc2c(=O)n1-c1ccccc1	0.085	1.1
O=C(O)C1SCCN1C(=O)c1ccc(Cl)cc1 (centres undefined)	0.075	0.75
CC(=O)N/C(=N\OCc1ccc(Br)cc1)c1nonc1NC(C)=O	0.4	-0.3
CN(C)C(CNC(=S)NC1CC1)c1ccccc1 (centres undefined)	/	-0.9
Clc1cccc(-n2ncc3c(NC4CCCC4)ncnc32)c1	0.57	-0.2
COc1cc(/C=C/C(=O)Nc2ccc(-c3nnc4n3CCCCC4)cc2)ccc1OCC#N	/	-0.4
N#Cc1c(/N=C/N2CCCCC2)sc2c1CCCC2	/	0.45
CCc1ccc2[nH]c(=O)c(CN(Cc3ccco3)Cc3nnnn3Cc3ccccc3)cc2c1	/	-0.3
O=C1c2ccccc2NC(c2cccs2)N1c1ccccc1 (centres undefined)	42	-0.5
COCCn1c(SC(C)C#N)nc2cc(Cl)ccc2c1=O (centres undefined)	/	-0.4
O=c1[nH]cnc2scc(-c3ccc(Cl)cc3)c12	0.47	-1.6
COC(=O)c1ccc(CSc2n[nH]c(=O)n2C2CC2)cc1	/	-0.45
COc1ccc(Br)cc1C1C(C#N)=C(N)Oc2c1c(=O)oc1ccccc21 (centres undefined)	-0.34	/
NC(N)=Nc1ccccc1F	-0.05	-1.3
C/C(CN1C(=O)c2ccccc2C1=O)=N/NC(=O)c1ccccc1O	2	-1.1
CCCC(=O)N(Cc1nc2ccccc2c(=O)[nH]1)C1CCCC1	/	1.6
Cc1ccc(C(O)CCc2ccc(N)cc2)cc1 (centres undefined)	-0.01	2.2
Cc1nn(C2CC(=O)N(c3ccc(Cl)cc3)C2=O)c(C)c1C (centres undefined)	/	-0.2
N=C(N)N1CCc2ccccc2C1	-0.26	/
CC(C)Cn1cc(NC(=O)Nc2cccnc2)c2ccccc2c1=O	49	-1.4
O=C(CCC1CCCCC1)Nc1nc2ccccc2s1	6.3	0.9

2 records picked at random from those above, as already listed:
compound	CapD inh	AID504770
Clc1cccc(-n2ncc3c(NC4CCCC4)ncnc32)c1	0.57	-0.2
O=C1c2ccccc2NC(c2cccs2)N1c1ccccc1 (centres undefined)	42	-0.5
